Calb FLC: affects C. albicans growth with fluconazole; actives 0.57% (n = 300,000); AID 1979; C. albicans CaCi-2 (fluconazole-resistant clinical isolate) + fluconazole, Alamar Blue growth, 48 h; growth inhibition, % (test concentration not listed);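 active = most replicates above 75%; inconclusive = exactly half above 75%; inactive = most below 75%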;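 note: all wells also contain fluconazole at 8 µg/ml as a sub-toxic cotreatment; 0% = median of DMSO wells and 100% = median of geldanamycin control wells; wells of about 8 µL received 7.5 nL stock; the first replicate is given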
T cruzi repl: T. cruzi replication inhibition; T. cruzi beta-gal in NIH3T3, luminescence, 90 h; inhibition, % (concentration not given with the values); actives 1.4% (n = 300,000); AID 1885;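 active = mean inhibition across valid replicates above about 55%, limit read from the data; inconclusive = mean below that limit but half or more replicates reach it; inactive = mean below it, under half of replicates reach it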;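 note: signal also drops with host cell toxicity which is not excluded here; 0% = plate median of DMSO wells and 100% = zero luminescence signal; higher percent means less beta-gal luminescence so fewer parasites; stock transfer was 50 nL into about 50 µL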
RanGTP-Imp inh: inhibitors of RanGTP-importin-beta interaction, primary screen, biochemical, FRET, CFP-Ran, YFP-importin-beta, homogeneous | cell-free CFP-Ran/YFP-importin-beta FRET ratio | inhibition, % (no concentration beside the values) | actives 1.1% (n = 300,000) | AID 2216;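 active = most replicates above 15%; inconclusive = exactly half above 15%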;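 note: 0% = DMSO wells and 100% = Ran loaded with GDP instead of GTP; wells of about 40 µL received 100 nL stock; the first replicate is given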
Vif TR-FRET: HIV-1 Vif–A3G interaction blockers – biochemical, TR-FRET, GST-Vif 1-94, biotin-A3G peptide, dose response retest, primary screen (AID 1117319); one-dose inhibition, %; IC50 in µM for titrated hits; TR-FRET GST-Vif / biotin-A3G peptide binding; higher % means a stronger effect; test concentration not given here; strong numbers were not always called active; actives 0.57% (n = 260,000);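 active = above the screen mean plus three standard deviations and confirmed in dose response; inconclusive = results disagree or hit not tested in dose response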;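 note: Vif residues 1-94 fused to GST binding biotinylated APOBEC3G peptide 110-148; 0% = full assay without inhibitor and 100% = GST in place of GST-Vif; retest series ran down from 100 µM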
Bfl-1 A1 inh: inhibitors of the anti-apoptotic protein A1, read as caspase activation | MEF A1-2A-BIM cells, Caspase-Glo 3/7 luminescence, 3 h; percent of clofoctol response, vehicle zero | caspase activation, % (no concentration beside the values) | actives 0.066% (n = 330,000) | AID 2462;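 active = over half of replicate activation scores above 10%, or exactly half above 10 with the replicate mean above 10; inconclusive = replicate mean below 10 yet half the replicates above 10; inactive = over half of replicates below 10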;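 note: wells of about 30 µL received 50 nL stock; many hits fall short of the cut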
LANA-H2A inh: blocks KSHV LANA binding to histone H2A/H2B; inhibition, % (test concentration not listed); cell-free LANA-H2A/H2B peptide, fluorescence polarization; actives 0.6% (n = 320,000); Q9QR71; in the data active = inhibition mostly above about 10%, no sharp cut-off; inactive = mostly below about 6.7%;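 note: stock transfer was 7.5 nL into about 10 µL; 0% = median of vehicle wells and 100% = median of positive control wells; one replicate is shown; the record names a cut of 25% in any replicate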
AF4-AF9 inh: inhibitors of human MLL-AF4/AF9 interaction; actives 0.47% (n = 350,000); AID 651704; AlphaScreen, biotin-AF4 peptide binding to FLAG-AF9; inhibition, % at 10 µM; P42568;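 active = every replicate reaching a set inhibition limit, whatever the replicate mean, cut at about 25% in these data; inconclusive = mean inhibition reaches that limit but some replicates miss it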;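 note: 0% = plate neutral control median and 100% = total signal loss; the record names both 10 and 1 µM as test concentration; the first replicate is given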
Target sequence (P42568 whole entry, looked up): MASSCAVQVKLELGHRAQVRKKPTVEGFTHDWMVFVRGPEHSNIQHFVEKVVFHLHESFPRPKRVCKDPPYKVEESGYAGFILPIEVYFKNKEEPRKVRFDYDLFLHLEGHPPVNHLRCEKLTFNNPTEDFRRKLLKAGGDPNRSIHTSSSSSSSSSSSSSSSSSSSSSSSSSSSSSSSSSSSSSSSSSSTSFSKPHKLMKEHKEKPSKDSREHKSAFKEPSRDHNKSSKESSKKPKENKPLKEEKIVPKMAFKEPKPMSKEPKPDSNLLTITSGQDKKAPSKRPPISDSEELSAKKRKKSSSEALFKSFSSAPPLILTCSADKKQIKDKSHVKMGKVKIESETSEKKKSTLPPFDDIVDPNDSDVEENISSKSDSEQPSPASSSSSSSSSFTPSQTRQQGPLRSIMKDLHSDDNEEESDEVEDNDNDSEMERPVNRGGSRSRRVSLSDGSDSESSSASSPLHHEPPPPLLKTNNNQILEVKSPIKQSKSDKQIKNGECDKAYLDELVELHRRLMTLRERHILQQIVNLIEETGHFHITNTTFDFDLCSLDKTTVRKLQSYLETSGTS
Beta cell apopt: blocks beta cell apoptosis | INS-1E cytokine-induced death, ATP luminescence, 48 h; percent of positive-control rescue, neutral wells zero | protection from apoptosis, % (test concentration not listed) | actives 0.8% (n = 300,000);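 active = all replicates at 75% or more, or half of them and the mean; inconclusive = half reach 75% but not the mean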;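 note: 0% = cytokine-treated negative control wells and 100% = positive control rescue; higher means more ATP so stronger rescue from cytokine killing; wells of about 40 µL received 100 nL stock; the first replicate is given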
Active calls of the source: *; ? = inconclusive; . = no result given; & = joins results of further samples.

Order of values – Calb FLC | T cruzi repl | RanGTP-Imp inh | Vif TR-FRET | Bfl-1 A1 inh | LANA-H2A inh | AF4-AF9 inh | Beta cell apopt
COCCNC(=O)C(c1ccc(F)cc1)N(Cc1ccco1)C(=O)CCC(=O)Nc1ccccn1 (stereo not given)
  1 | 3 | -2.4 | 1% | 0.6 | -4.6 | -0.4 | -8
Cc1cc(C)n(-c2ccc(C(=O)OCC(=O)Nc3ccccc3[N+](=O)[O-])cc2)n1
  -2 | 5 | 3.7 | . | 1.7 | -2.0 | -19 | -4
O=C(NCc1nnc2n1CCCCC2)c1ccc(Cl)cc1Cl
  -5 | -20 | 0.6 | 20% | 0.4 | 2.8 | . | -6
O=C(CCC(=O)N1CCN(S(=O)(=O)c2ccccc2)CC1)NC1CCCc2ccccc21 (stereo not given)
  9 | -1 | 0.9 | 5%&0% | 0.4 | 2.3 | . | -6
Cc1c2cn[nH]c(=O)c2c(C)n1Cc1ccc(F)cc1
  0 | -10 | ? | -3% | -0.6 | 1.3 | -1.1 | 16
Cn1c(=O)n(C)c2cc(S(=O)(=O)NCCOCCO)ccc21
  35 | -23 | -1.1 | 3% | 0.6 | -3.3 | . | -7
O=C(CCn1c(SCC(=O)NCc2ccco2)nc2ccccc2c1=O)NCCc1ccccc1
  4 | -9 | 0.4 | 4% | 0.3 | 7.3 | . | -2
CCOc1ccccc1N1CCN(C(=O)c2cc(-c3cccnc3)nc3c(Cl)cccc23)CC1
  0 | 28 | 0.9 | 8% | 0.3 | -7.4 | . | -7
COc1ccc(S(=O)(=O)Cc2ccc(C(=O)N3CCN(Cc4ccccc4)CC3)o2)cc1
  7 | -8 | 1.0 | 27% | 0.2 | 3.5 | 6.6 | .
COC(=O)/C=C(\C)NC(=O)c1cccs1
  -2 | -14 | 2.4 | 3% | -2.1 | -3.2 | . | -5
CCOC(=O)C1CCN(S(=O)(=O)c2ccccc2)CC1
  -12 | -3 | ? | -5% | 0.1 | 3.4 | 1.2 | .
CCOC(=O)c1c(NC(=O)CN2CCN(C(=O)c3ccco3)CC2)sc2c1CCCC2
  103* | 31 | -4.5 | -7% | -0.6 | 4.4 | . | 1
Cc1oc2nc(SCC(=O)NCc3cccnc3)nc(N)c2c1C
  -2 | -22 | -4.6 | 4% | 0.4 | -2.4 | . | -3
CC(C)c1cc(C(=O)N2CCCC(CCC(=O)N3CCN(c4ccccn4)CC3)C2)no1 (stereo not given)
  -6 | 14 | 1.1 | 1% | -0.3 | 0.6 | . | -10
O=[N+]([O-])c1c(NCCCO)cc(Sc2nc3ccccc3s2)c2nonc12
  39 | 31 | -0.9 | ? | -0.2 | 4.5 | . | 0
O=C(O)CCSc1nnc(-c2ccccc2)n1-c1ccccc1
  -4 | -10 | -1.4 | 3% | 0.4 | 4.6 | . | -17
S=C(Nc1ccccc1)Nc1ccc(Cl)cc1Cl
  5 | -3 | -0.8 | 14% | 0.0 | 4.6 | . | -6
Cc1n[nH]c(=O)c2c(NC(=O)COC(=O)/C=C/c3cccc(C(F)(F)F)c3)oc(C)c12
  0 | -5 | -2.3 | 12% | -0.2 | -0.2 | -6.9 | .
CSc1nc(NC(C)(C)C)nc(Oc2ccc(=O)[nH]n2)n1
  7 | 27 | -1.6 | -1% | 0.4 | 3.9 | . | 6
COc1ccccc1NC(=O)CSc1nc(O)cc(=O)n1-c1ccccc1OC
  8 | -6 | 3.1 | 6% | 0.2 | -4.9 | . | 1

Sorted by value in Vif TR-FRET (lowest first): 6 from the list above
structure	RanGTP-Imp inh	Vif TR-FRET	LANA-H2A inh	AF4-AF9 inh
CCOC(=O)c1c(NC(=O)CN2CCN(C(=O)c3ccco3)CC2)sc2c1CCCC2	-4.5	-7%	4.4	.
CSc1nc(NC(C)(C)C)nc(Oc2ccc(=O)[nH]n2)n1	-1.6	-1%	3.9	.
COCCNC(=O)C(c1ccc(F)cc1)N(Cc1ccco1)C(=O)CCC(=O)Nc1ccccn1 (stereo not given)	-2.4	1%	-4.6	-0.4
Cn1c(=O)n(C)c2cc(S(=O)(=O)NCCOCCO)ccc21	-1.1	3%	-3.3	.
O=C(CCn1c(SCC(=O)NCc2ccco2)nc2ccccc2c1=O)NCCc1ccccc1	0.4	4%	7.3	.
S=C(Nc1ccccc1)Nc1ccc(Cl)cc1Cl	-0.8	14%	4.6	.

(listing goes on)
Order of values – Calb FLC | T cruzi repl | RanGTP-Imp inh | Vif TR-FRET | Bfl-1 A1 inh | LANA-H2A inh | AF4-AF9 inh | Beta cell apopt
CCOc1ccc(NC(=O)CSc2nnc(CNC(=O)c3ccco3)o2)cc1
  -7 | -21 | 6.1 | -4% | 0.3 | 3.3 | -2.2 | 0
COc1ccc2ccccc2c1/C=N/O
  -1 | -4 | 0.5 | -8% | 0.1 | 3.6 | . | .
CCOc1c(C)cc(-c2ncccc2O)cc1C
  7&-13 | 21&5 | -1.4&6.1 | 7%&-1% | 0.7&-1.1 | 1.5&0.6 | . | -3&-1
CCC(=O)c1ccccc1OCCCn1cncn1
  . | 3 | ? | -6% | 0.2 | 1.5 | . | -2
COC(=O)c1ccc(C)c(NC(=O)C(CCSC)NC(=O)c2cc(OC)c(OC)c(OC)c2)c1 (stereo not given)
  -3 | -7 | -6.2 | . | 0.3 | 1.1 | -1.9 | 4
CN(C)C(=O)NC1CCCCCCCCCCC1
  -3 | -4 | 2.1 | -2% | -1.0 | -1.8 | . | -1
COCCCn1c(SCC(=O)N2CCc3ccccc32)nnc1-c1ccco1
  -15 | 11 | -1.8 | -1% | -0.7 | 0.9 | . | -3
CN1CCN(C(=O)C2=C[C@H](c3ccccc3)C[C@H](OCc3ccc(CO)cc3)O2)CC1
  -11 | -1 | 2.5 | 0% | 1.5 | -0.3 | 1.7 | -3
Cc1cc(-c2n[nH]c(=S)n2/N=C/c2ccc(Br)s2)n[nH]1
  18 | -15 | 7.0 | . | 0.0 | 3.3 | . | -7
Cc1nc2c(o1)CCc1ccccc1C2O (stereo not given)
  21 | 0 | 3.9 | -3% | 0.0 | 0.8 | . | -2
COC(=O)c1c(NC(=O)CSc2nc3ccccc3c(=O)n2Cc2ccco2)sc(C)c1C
  -4 | 3 | 2.7 | . | -0.1 | -3.2 | 0.0 | 0
CCOc1ccccc1NC(=S)NCc1cccn1C
  -5 | 7 | 2.9 | 18% | 0.2 | 1.0 | 2.8 | 0
Cc1csc(SCC(=O)NC(=O)c2ccccc2)n1
  -2 | 3 | 5.1 | 1% | 0.2 | -3.7 | -4.4 | -4
Cc1cccc(NC(=O)c2cnc3sccn3c2=O)c1C
  7 | -5 | 4.5 | 8% | . | . | -2.1 | .

An excerpt of these results, as labelled records:
CN(C)C(=O)NC1CCCCCCCCCCC1
- Calb FLC: -3
- T cruzi repl: -4
- RanGTP-Imp inh: 2.1
- Vif TR-FRET: -2%
- Bfl-1 A1 inh: -1.0
- LANA-H2A inh: -1.8
- AF4-AF9 inh: .
- Beta cell apopt: -1

COCCCn1c(SCC(=O)N2CCc3ccccc32)nnc1-c1ccco1
- Calb FLC: -15
- T cruzi repl: 11
- RanGTP-Imp inh: -1.8
- Vif TR-FRET: -1%
- Bfl-1 A1 inh: -0.7
- LANA-H2A inh: 0.9
- AF4-AF9 inh: .
- Beta cell apopt: -3

CN1CCN(C(=O)C2=C[C@H](c3ccccc3)C[C@H](OCc3ccc(CO)cc3)O2)CC1
- Calb FLC: -11
- T cruzi repl: -1
- RanGTP-Imp inh: 2.5
- Vif TR-FRET: 0%
- Bfl-1 A1 inh: 1.5
- LANA-H2A inh: -0.3
- AF4-AF9 inh: 1.7
- Beta cell apopt: -3

Cc1cc(-c2n[nH]c(=S)n2/N=C/c2ccc(Br)s2)n[nH]1
- Calb FLC: 18
- T cruzi repl: -15
- RanGTP-Imp inh: 7.0
- Vif TR-FRET: .
- Bfl-1 A1 inh: 0.0
- LANA-H2A inh: 3.3
- AF4-AF9 inh: .
- Beta cell apopt: -7
